# High-throughput results: PubChem BioAssay, National Center for Advancing Translational Sciences (NCATS)
# TRPML1 agonist – human mucolipin-1 channel agonism; TRPML1-expressing cells, Ca2+ dye fluorescence, FDSS; host cell line not named in the record; reference of the full effect not given here; activation, % (concentration not given with the values); 410,000 compounds, 0.12% hits; AID 624414; in the data active = activation above about 50%; inconclusive = about 30% to 50%; inactive = below about 30%; also: 0% is about no effect; the text of the record puts the active cut at 80%
# Target sequence (Q9GZU1 whole entry, looked up): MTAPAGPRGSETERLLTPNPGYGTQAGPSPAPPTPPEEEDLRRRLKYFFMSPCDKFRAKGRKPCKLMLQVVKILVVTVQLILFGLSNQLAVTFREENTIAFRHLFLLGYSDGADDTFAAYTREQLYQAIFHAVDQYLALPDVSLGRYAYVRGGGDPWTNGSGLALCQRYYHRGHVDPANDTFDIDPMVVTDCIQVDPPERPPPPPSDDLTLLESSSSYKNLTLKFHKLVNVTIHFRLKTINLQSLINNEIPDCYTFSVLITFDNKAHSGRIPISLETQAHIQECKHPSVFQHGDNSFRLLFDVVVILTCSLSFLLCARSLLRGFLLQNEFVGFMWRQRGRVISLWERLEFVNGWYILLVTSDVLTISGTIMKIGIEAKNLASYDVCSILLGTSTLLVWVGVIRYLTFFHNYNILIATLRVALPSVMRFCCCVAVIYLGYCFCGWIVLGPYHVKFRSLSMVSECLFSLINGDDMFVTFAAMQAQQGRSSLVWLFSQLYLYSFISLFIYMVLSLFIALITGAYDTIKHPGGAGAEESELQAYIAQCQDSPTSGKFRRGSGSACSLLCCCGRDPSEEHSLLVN
#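 Agonist activity was taken from a 110 s kinetic Ca2+ dye read on the FDSS after pinning compounds onto TRPML1-DL cells. The cells were seeded at 1,500/well with Tet inducer, incubated about 16 h, then dye-loaded at room temperature.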
# D2 ag – agonists of human D2 dopamine receptor (beta-arrestin); 360,000 compounds, 0.084% hits; activation, % (no concentration beside the values); DiscoveRx PathHunter D2 beta-arrestin, luminescence, 90 min; 100% = 57 uM dopamine signal; AID 624465; P14416; in the data active = activation above about 40%; inconclusive = about 15% to 40%; inactive = below about 15%; also: compound concentration not given in the record; the text of the record calls up to 30% inactive
# Target sequence (P14416 whole entry, looked up): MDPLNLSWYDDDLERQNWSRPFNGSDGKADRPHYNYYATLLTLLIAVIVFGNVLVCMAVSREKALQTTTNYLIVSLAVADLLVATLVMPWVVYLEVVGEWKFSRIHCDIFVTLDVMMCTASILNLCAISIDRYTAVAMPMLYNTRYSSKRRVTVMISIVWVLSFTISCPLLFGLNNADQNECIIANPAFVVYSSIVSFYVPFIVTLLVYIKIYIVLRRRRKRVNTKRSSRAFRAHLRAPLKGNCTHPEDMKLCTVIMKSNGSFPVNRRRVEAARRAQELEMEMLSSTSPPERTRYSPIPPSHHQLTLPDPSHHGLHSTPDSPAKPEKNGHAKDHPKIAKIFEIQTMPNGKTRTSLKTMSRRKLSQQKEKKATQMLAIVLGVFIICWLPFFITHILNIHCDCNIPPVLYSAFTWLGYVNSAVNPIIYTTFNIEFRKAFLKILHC
#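 Agonist mode: compounds alone added to overnight-plated D2 PathHunter cells for 90 min at 37 C, with 57 uM final dopamine (EC100) defining full response. Beta-arrestin recruitment detected by chemiluminescent reagent, read after 1 h at ambient temperature.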
# Six1-Eya2 blk – blocks human Six1 binding to Eya2; activity change, % (test concentration not listed); AID 651725; 360,000 compounds, 0.56% hits; Q15475+O00167; AlphaScreen GST-Six1/His-Eya2 binding, biochemical; stronger effect = lower value; control for the full effect not named in the record; in the data active = activity change below about -65%; inconclusive = about -30% to -65%; inactive = above about -30%; also: % is scaled to controls: 0 for no effect and ±100 for the full control effect
#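 Homogeneous AlphaScreen proximity assay pairing GST-Six1 with His-tagged Eya2 (added as 5X mix: 250 nM and 500 nM) in 50 mM Tris pH 8.0, 300 mM NaCl, 1 mM TCEP. Glutathione donor and nickel acceptor beads; 1 h, 37 °C, dark.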
# D2 PAM – positive allosteric modulators of human D2 dopamine receptor. P14416. DiscoveRx D2 beta-arrestin cells, luminescence, 90 min; 100% = 57 uM dopamine signal. potentiation, % (test concentration not listed). 360,000 compounds, 0.23% hits. AID 624464; active = potentiation of 50% or more; inconclusive = 30% to 50%; inactive = 30% or less;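 also: compound concentration not given in the record; tested on top of an EC20 dose of dopamine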
#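 PathHunter beta-arrestin assay in DiscoveRx D2 cells. Compounds were added with an EC20 of dopamine (50 nM final) for 90 min at 37 deg C. Luminescence was read 1 h after detection reagent, with 57 uM dopamine as the EC100 control.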
# PINK1 expr mod – changes PINK1 expression; PINK1 immunofluorescence, high-content cytometry, 24 h; Potency, µM (series often up to 76.6 µM), without a hit: at the highest dose activation (PINK1 increase), usual class: activators; 410,000 compounds, 0.2% hits; AID 624263; active = well fitted activation curve with a large enough effect; inconclusive = small, poorly fitted or top-dose-only effect; inactive = flat fitted curve, though single readings scatter; cell line not stated here;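 also: potency is read from the fitted curve at half-maximal effect; % of control where 0% means no effect; nearly all actives have a fitted effect of over 65% in size; a mitochondrial uncoupler was the plate control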
#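 Measures PINK1 amount and localization on or inside mitochondria by immunofluorescence. Stable cells get compounds at 5 concentrations for 24 hours before fixation and staining; CCCP controls included.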
# TRPML1 inh – inhibitors of human TRPML1 channel; Q9GZU1; TRPML1-inducible cells, Ca2+ dye fluorescence, FDSS; stronger effect = lower value; inhibition of EC80 agonist-evoked calcium signal; activity change, negative = inhibition, % (concentration not given with the values); 390,000 compounds, 0.02% hits; AID 624415; in the data active means activity change below about -50%; inconclusive means about -30% to -50%; inactive means above about -30%;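 also: stimulus is agonist 54-4 at its EC80 concentration; % is scaled to controls: 0 for no effect and ±100 for the full control effect; the text of the record puts the active cut at -80%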
#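 TRPML1-DL cells, Tet-induced overnight (~16 h, 37 °C) at 1,500 cells/well, were loaded with Ca8 no-wash dye plus quencher for 45-90 min at room temperature. Compounds were pinned during FDSS kinetic reading; agonist 54-4 at EC80 (4 uM final) then added.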
# An asterisk follows results filed as active; x = not tested or not shown; [ ] = dose if it differs, or a comment.
SMILES,TRPML1 agonist,D2 ag,Six1-Eya2 blk,D2 PAM,PINK1 expr mod,TRPML1 inh
COc1ccc(S(=O)(=O)NC(=O)C2(C)CCN2C(=O)COc2ccc(Cl)cc2)cc1OC (configuration not stated),-0.3,-1.4,1,6,1.1%,x
O=S(=O)(NCc1cccnc1)c1ccc(Cl)c(Cl)c1,-0.8,-1.5,0,-26,1.4%,4
CC(C)CN1C(=O)c2ccc(C(=O)NCc3ccc4c(c3)OCO4)cc2C1=O,1.4,-2.7,4,0,-3.1%,-15
COc1ncccc1-c1cc2nc(NCCCN(C)C)n(C)c(=O)c2s1,-0.5,-6.1,0,-13,-0.3%,x
CC(C)Nc1nnc(SCc2cc(=O)n3ccsc3n2)s1,-0.5,-0.9,-1,2,0.4%,-5
NC(=O)CSc1nnc(NC(=O)C23CC4CC(CC(C4)C2)C3)s1,0.2,-4.2,1,-2,3.9%,11
Cc1[nH]nc(-c2cccnc2)c1N=NN(C)C,-0.3,13,-17,-1,0.6%,7
C[C@H](NS(=O)(=O)c1ccc(Cl)cc1)C(=O)OCC(=O)N1CCOCC1,0.6,-4.4,9,-2,1.5%,27
CN(C)C(=O)C#Cc1ccccc1,-0.7,-1.2,18,-4,-2.5%,-2
CCOc1ccccc1NC(=O)C(C)SCc1ccccc1 (configuration not stated),0.3,-1.1,11,-4,0.9%,-8
O=C(CSc1nc2ccccc2[nH]1)c1ccc2c(c1)OCO2,-0.4,-3.0,3,-17,2.2%[38.3 µM],3
O=C(N/N=C/c1ccc(OCc2ccccc2)cc1)c1cc[n+](Cc2ccccc2)cc1,-1.8,-2.5,-27,-19,5.1%,-6
CC(C)OCCCN1C(=O)c2[nH]nc(-c3ccccc3O)c2C1c1cccc(OCc2ccccc2)c1 (configuration not stated),0.5,x,x,x,6.9%,-3
Cc1ccc(OCCSc2nc3ccc(NC(=O)c4ccc(F)cc4)cc3s2)cc1,-0.5,x,x,x,3.1%,-12
CC(=O)NCc1nc2ccccc2n1Cc1ccccc1F,-1.3,-2.8,5,-4,-1.3%,-5
O=C(Oc1ccccc1)n1c(=S)oc2ccccc21,-0.1,5.9,14,-9,-2.8%,3
CC1CCCCC1N=C1NC(C)(C)CS1 (configuration not stated),0.4,2.0,0,-37,2.2%,-8
CC(C)(C)OC(=O)C[C@H]1C/C=C\C[C@@H](CC(=O)N[C@H](CO)Cc2ccccc2)C(=O)NCCOC1=O,-0.5,-3.6,4,-10,2.3%,32
CC1CCc2nc3ncn(CC(=O)Nc4cccc(C#N)c4)c(=O)c3cc2C1 (configuration not stated),1.1,x,x,x,0.5%,27
CCN(CC)S(=O)(=O)c1cc(NC(=O)COC(=O)Cn2cnc3ccccc32)ccc1C,-0.4,0.4,-3,-18,-0.9%,-1

# 2 consecutive entries from above:
SMILES,TRPML1 agonist,D2 ag,Six1-Eya2 blk,D2 PAM,PINK1 expr mod,TRPML1 inh
COc1ccc(S(=O)(=O)NC(=O)C2(C)CCN2C(=O)COc2ccc(Cl)cc2)cc1OC (configuration not stated),-0.3,-1.4,1,6,1.1%,x
O=S(=O)(NCc1cccnc1)c1ccc(Cl)c(Cl)c1,-0.8,-1.5,0,-26,1.4%,4

# Additional records follow.
SMILES,TRPML1 agonist,D2 ag,Six1-Eya2 blk,D2 PAM,PINK1 expr mod,TRPML1 inh
C/C(=N\NC(=O)c1cc(C)oc1C)c1ccc(N2CCOCC2)cc1,-0.7,-3.6,0,-16,6.9%,-3
CC1CCC(NC(=O)C2c3ccccc3C(=O)N2CCCN2CCOCC2)CC1 (configuration not stated),-0.3,-0.9,9,-1,2.0%,-14
C=CCN1C(=O)C(O)(CC(=O)c2ccccn2)c2ccccc21 (configuration not stated),-0.6,0.4,6,-4,2.8%,-5
Cc1nnc(NC(=O)CSc2nnc(-c3ccoc3C)n2CC(C)C)s1,4.7,-4.4,-1,-13,-1.9%,-2
Cc1ccc2nc(-c3ccc(NC(=O)CCS(=O)(=O)c4ccccc4)cc3)sc2c1,0.6,3.5,-4,-2,3.9%,4
Brc1cccc(OCCN2CCOCC2)c1,x,-5.5,9,-72,-0.3%,x
O=S(=O)(c1cccc(-c2n[nH]c(=S)n2C2CCCC2)c1)N1CCOCC1,-0.6,5.7,1,-11,-0.9%,15
C=CCC1(N(C(C)=O)c2ccccc2)CCCCC1,1.1,-5.8,6,-2,-2.1%,-9
Cc1ccc2cccc(SCC(=O)NCC#N)c2n1,0.1,-3.0,8,-2,0.4%,-5
COc1ccc(-c2c3c(nc4sc5c(Cl)nc(C)nc5c24)CCC3)cc1,0.2,-2.2,-2,0,0.9%,4
O=C(O)c1ccc2c(c1)N(Cc1ccc(F)cc1)C(=O)c1ccccc1S2=O (configuration not stated),-0.1,x,x,x,3.2%,-5
NC(=O)c1ncn([C@@H]2O[C@H](CNCc3c(OCc4ccccc4F)ccc4ccccc34)[C@@H](O)[C@H]2O)n1,-0.3,-0.3,1,x,-0.1%,3
Cc1cc(/C=C2\SC(=Nc3ccccc3)NC2=O)c(C)n1-c1ccc(S(N)(=O)=O)cc1,1.4,-3.0,-12,-12,0.6%,12
CC(C)CN1CCC(CN2CCNC(=O)C2=O)CC1,-0.3,-4.1,9,-1,1.4%,-10
Cc1ccc(C(=O)Nc2sc3c(c2C(=O)NCc2ccco2)CCC(C(C)(C)C)C3)cc1 (configuration not stated),-0.3,x,x,x,0.1%,-3
N#CC(C(=O)NCc1ccco1)c1nc2ccccc2nc1N1CCOCC1 (configuration not stated),3.3,1.3,-11,26,2.1%,6
N#Cc1cn(CC(=O)NCC2CCCO2)c2ccccc12 (configuration not stated),0.2,0.5,4,3,8.9%[38.3 µM],18
Fc1cccc(-c2nnn3c2nc(NCCc2ccccc2)c2ccccc23)c1,-0.6,x,x,x,1.6%,-24
C/C(=N\NC(=O)c1nnn(-c2nonc2N)c1CN1CCCCCC1)c1ccc(Br)cc1,-0.6,-6.7,-30,-15,12%,-1
CCCCn1c(SCC(=O)Nc2ccc(C)c(S(=O)(=O)N3CCOCC3)c2)nnc1C(CC)N(C)C (configuration not stated),1.0,-4.2,-1,-10,1.3%,-20
Cc1ccc(C(=O)N2CCN(Cc3ccc4c(c3)OCO4)CC2)cc1[N+](=O)[O-],1.0,0.7,-4,-12,0.1%,-1
Cc1cccc2c(CC(=O)Nc3ccccc3)noc12,-1.4,-6.6,0,-6,1.0%,31
O=C(COC(=O)CCCSc1nc2ccccc2[nH]1)NC(=O)NC1CCCC1,2.6,-2.1,18,-27,-1.4%,11
COc1ccc(CC(=O)OCC(=O)Nc2ncc(Cl)cc2Cl)cc1,1.1,1.0,-3,1,0.4%,-9
CCOC(=O)c1cccc(NC(=O)CCc2c(C)nn(-c3ccc(N4CCOCC4)nn3)c2C)c1,-1.2,x,x,x,1.0%,-6
CCC1SC2=NC(C)=C(C(=O)OCCOC)C(c3ccc(C(=O)OC)cc3)N2C1=O (configuration not stated),-0.1,-2.4,-2,-18,0.3%,2
C=CCn1c(SCC(=O)Nc2cc(C)on2)nnc1-c1ccccc1F,-0.6,-1.3,3,-7,0.7%,20
CCN(CC)S(=O)(=O)c1ccc(N/N=C/c2cccnc2)nc1,-0.7,-3.2,-2,-7,1.6%,-1
Cc1ccc(-c2noc(CN(C)C(=O)Nc3ccc(F)cc3)n2)cc1,0.9,-4.5,17,-10,0.1%,-13
COc1ccc(NC(=O)C2Cc3ccccc3N2C(=O)c2ccccc2)cc1OC (configuration not stated),2.0,x,x,x,2.6%,3
COc1ccccc1C(CCN(Cc1cccs1)C(C)=O)c1ccco1 (configuration not stated),0.2,-5.4,-6,-17,3.8%,-12
CCNC(=O)c1c(C)[nH]c(C(=O)OCC)c1C,-0.3,-3.1,22,-3,3.5%[38.3 µM],-10
Nn1c(SCC(=O)N2CCCC2=O)nnc1-c1cccs1,0.0,-0.7,3,15,0.3%,9
CC(C)Cc1cc(C(=O)NCCN2CCOCC2)no1,-0.6,0.8,3,-6,2.0%,1
Cc1cc(C)nc(NS(=O)(=O)c2ccc(N/C=C/C(=O)c3ccc(Cl)c(Cl)c3)cc2)n1,0.4,0.4,5,-22,5.3%,3
CC(Sc1nc(N)c(NC(=O)c2ccc(Br)o2)c(=O)[nH]1)C(=O)O (configuration not stated),-0.2,-3.3,-10,15,2.3%,-5
O=C(NC1CC1)c1ccc2c(c1)C1C3CCC(C3)C1C(c1ccccc1)N2 (configuration not stated),-0.8,-5.5,-9,-24,1.7%,6
O=C(Nc1ncccn1)c1ccc(C(F)(F)F)cc1,-0.4,-3.4,5,8,18%,5
COCCCNC(=O)CSc1nc2ccccc2c(=O)n1Cc1ccco1,0.7,x,x,x,3.9%,6
CC(=O)Oc1ccccc1C1=NN(C(C)=O)C(c2ccccc2)C1 (configuration not stated),0.0,-3.6,4,-2,0.2%,10

# Entries of single compounds, looked up by structure.
# Shown for Cc1ccc(C(=O)N2CCN(Cc3ccc4c(c3)OCO4)CC2)cc1[N+](=O)[O-] → TRPML1 agonist: 1.0; D2 ag: 0.7; Six1-Eya2 blk: -4; D2 PAM: -12; PINK1 expr mod: 0.1%; TRPML1 inh: -1
# Shown for CCNC(=O)c1c(C)[nH]c(C(=O)OCC)c1C → TRPML1 agonist: -0.3; D2 ag: -3.1; Six1-Eya2 blk: 22; D2 PAM: -3; PINK1 expr mod: 3.5%[38.3 µM]; TRPML1 inh: -10
# Shown for CC(C)Cc1cc(C(=O)NCCN2CCOCC2)no1 → TRPML1 agonist: -0.6; D2 ag: 0.8; Six1-Eya2 blk: 3; D2 PAM: -6; PINK1 expr mod: 2.0%; TRPML1 inh: 1

# Carrying on:
SMILES,TRPML1 agonist,D2 ag,Six1-Eya2 blk,D2 PAM,PINK1 expr mod,TRPML1 inh
CN1C[C@@H]2[C@@H]3C(=O)N(Cc4ccccc4)C(=O)[C@@H]3[C@](C)(C1=O)N2C(=O)c1ccc(C(C)(C)C)cc1,-0.6,-2.4,1,-7,-0.3%,3
Cc1cc(C)cc(C(O)c2ncc(-c3cccc(F)c3)[nH]2)c1 (configuration not stated),-0.3,-4.8,-12,-12,2.4%,-12
O=C(COC(=O)c1cc(=O)c2ccccc2o1)Nc1ccccc1F,-0.4,-2.6,9,-7,5.1%,-12
OC(CN1CCN(Cc2ccccc2)CC1)c1ccccc1 (configuration not stated),0.8,1.3,-10,-5,0.0%,5
O=C(c1cc2ccccc2o1)N1CCN(S(=O)(=O)/C=C/c2ccccc2)CC1,-0.6,-1.3,-1,10,1.6%,3
OC(C[n+]1ccccc1)c1ccccc1 (configuration not stated),0.8,0.1,5,-2,0.8%,-4

# Two entries picked at random from those above, as already listed:
SMILES,TRPML1 agonist,D2 ag,Six1-Eya2 blk,D2 PAM,PINK1 expr mod,TRPML1 inh
CC1CCC(NC(=O)C2c3ccccc3C(=O)N2CCCN2CCOCC2)CC1 (configuration not stated),-0.3,-0.9,9,-1,2.0%,-14
Cc1ccc(C(=O)Nc2sc3c(c2C(=O)NCc2ccco2)CCC(C(C)(C)C)C3)cc1 (configuration not stated),-0.3,x,x,x,0.1%,-3
